gsp antagonist: gsp mutant antagonism | AID 624288 | actives 0.4% (n = 340,000) | Potency, µM (titrated, usually from 76.9 µM), for inactives: at the highest dose activity change, negative = inhibition, actives largely listed as inhibitors | gsp-mutant cells, cAMP HTRF, 30 min; control for the full effect not named in the record; active = falling curve of any shape with a large fitted effect; inconclusive = falling curve, mostly with a smaller effect; inactive = flat or rising curve; cell line not stated here;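 note: intracellular cAMP measured with PDE inhibitor Ro 20-1724 present during compound exposure; potency is the fitted concentration of half-maximal effect; % is set by controls: 0 for no effect and ±100 for the full control effect; nearly all actives have a fitted effect of over 65% in size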
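Cells in G418 medium, seeded 16-24 h, 37C; buffer exchange to DPBS + 1 mM CaCl2, 0.5 mM MgCl2, 0.05% BSA; cpds in DMSO + […] (300 uM stock), 30 min 37C; HTRF cAMP detection.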
TRPV1 PAM: human TRPV1 potentiation; Q8NER1; TRPV1-expressing cells, Fluo-8 calcium influx, capsaicin EC20 potentiation; host cell line not named in the record; control for the full effect not named in the record; potentiation, % at 8.33 µM; actives 0.02% (n = 320,000); AID 540277; active means potentiation above 80%; inconclusive means 30% to 80%; inactive means below 30%; note: 0% is about no effect
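Fluo-8 calcium influx in TRPV1-expressing cells, kinetic read (ex 480/em 520 nm). Compound added and read 3 min for agonist activity, followed by capsaicin at EC20 final and 2 min further read for enhancement.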
ClpP mod: qHTS Assay for Activators of ClpP | purified B. subtilis ClpP, FRET peptide cleavage, 20 min | ATP-dependent Clp protease proteolytic subunit (Bacillus subtilis (strain 168)), P80244 | actives 1.9% (n = 340,000) | Potency, µM (highest dose often 57.5 µM), inactives show top-dose activity change, negative = active | AID 651965, 2013; active = well fitted falling curve with a large enough effect; inconclusive = small, poorly fitted or top-dose-only effect; inactive = no such curve, though single readings can be large or run the other way; note: potency is the fitted concentration of half-maximal effect; the source files actives as falling curves though it sought activators and does not explain the sign; nearly all actives have a fitted effect of over 65% in size; many hits overshoot -100%
Target sequence (P80244 whole entry, looked up): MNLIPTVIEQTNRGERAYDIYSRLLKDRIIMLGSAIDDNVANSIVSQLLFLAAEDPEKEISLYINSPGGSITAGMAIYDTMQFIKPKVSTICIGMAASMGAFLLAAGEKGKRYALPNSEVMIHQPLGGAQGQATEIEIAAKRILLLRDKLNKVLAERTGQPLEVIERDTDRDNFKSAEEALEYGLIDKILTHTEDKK
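Buffer: 100 mM Tris/HCl pH8, 100 mM KCl, 0.05% low protease BSA, 2.5% glycerol, 0.01% Tween-20. ClpP 10 microg/mL final; 20 min RT; delta FRET normalized to ADEP and DMSO controls.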
Menin-MLL FL inh: menin-MLL binding inhibition, fluorescein peptide | Fluorescence polarization, fluorescein-MLL peptide displacement from menin | FP activity change, % at 61.4 µM | 290,000 tested, under 10 active | AID 1766; inconclusive = falling polarisation curve, or a change in total fluorescence; inactive = total fluorescence flat and polarisation flat or rising; no compound was filed as active; the % refers to the polarisation; negative = inhibition;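 note: % of control where 0% means no effect; inhibitors lower the polarisation; unlabelled MLL peptide was the positive control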
D2 PAM: human D2 receptor positive allosteric modulation; potentiation, % (no concentration beside the values); DiscoveRx D2 beta-arrestin cells, luminescence, 90 min; 100% = 57 uM dopamine signal; actives 0.23% (n = 360,000); P14416; active = potentiation of 50% or more; inconclusive = 30% to 50%; inactive = 30% or less;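 note: compound concentration not given in the record; tested on top of an EC20 dose of dopamine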
Target sequence (P14416 whole entry, looked up): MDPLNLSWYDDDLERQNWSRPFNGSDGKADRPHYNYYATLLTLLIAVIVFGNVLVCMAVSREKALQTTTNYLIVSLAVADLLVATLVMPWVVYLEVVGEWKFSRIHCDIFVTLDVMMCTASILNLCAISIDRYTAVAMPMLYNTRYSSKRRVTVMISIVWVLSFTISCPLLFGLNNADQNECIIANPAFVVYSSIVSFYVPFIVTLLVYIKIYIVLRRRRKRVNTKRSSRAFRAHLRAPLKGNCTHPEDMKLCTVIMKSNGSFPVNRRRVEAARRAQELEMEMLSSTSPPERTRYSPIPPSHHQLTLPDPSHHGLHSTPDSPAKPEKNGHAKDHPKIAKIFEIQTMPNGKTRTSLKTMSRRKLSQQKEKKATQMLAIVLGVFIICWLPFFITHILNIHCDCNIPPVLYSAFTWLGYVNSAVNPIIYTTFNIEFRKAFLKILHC
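D2 cells co-treated with compound plus 50 nM dopamine (EC20) for 90 min at 37 deg C to detect potentiation. Beta-arrestin recruitment was read as enzyme-fragment luminescence after 1 h at ambient temperature. Full response was set by 57 uM dopamine.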
Sfp inh: Sfp phosphopantetheinyl transferase inhibition; Q9F4F7; Biochemical Sfp PPTase activity, qHTS; Potency, µM, without a hit: max response, negative = inhibition, most hits filed as inhibitors; actives 3.5% (n = 310,000); active = well fitted inhibition curve with a large enough effect; inconclusive = small, poorly fitted or top-dose-only effect, or another doubt; inactive = no such curve, though single readings can be large or run the other way;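 note: the enzyme is Sfp with the accession as filed and its product quenches rhodamine fluorescence; potency is the fitted concentration of half-maximal effect; 0% = enzyme reaction without inhibitor and -100% = no enzyme wells; top concentration of the series not given in the record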
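With Hepes-Na pH 7.6 buffer containing 10 mM MgCl2, Sfp (15 nM) modified BHQ-2-YbbR (12.5 uM) using rhodamine-CoA (5 uM). Two reads 30 minutes apart at 525/598 nm yielded each well's rate.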
gsp ag: activates gsp, the McCune-Albright syndrome mutation | gsp mutant cells, cAMP HTRF, 30 min; control for the full effect not named in the record | Potency, µM (top dose mostly 76.9 µM), for the others: at the top dose activation (cAMP increase), hits mostly activators | actives 0.13% (n = 340,000) | AID 624287; active = well fitted activation curve with a large enough effect; inconclusive = small, poorly fitted or top-dose-only effect, or another doubt; inactive = no such curve, though single readings can be large or run the other way; cell line not stated here;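 note: phosphodiesterase inhibitor Ro 20-1724 added with compounds to block cAMP breakdown; potency is the fitted concentration of half-maximal effect; nearly all actives have a fitted effect of over 60% in size; about a fifth of the inactives were tested at one dose only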
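Cells in DMEM/10% FBS with G418 were pretreated with compounds in DMSO plus […] (300 uM stock) for 30 min at 37C. cAMP was measured by HTRF (cAMP-d2 plus anti-cAMP antibody-K) after 30 min at room temperature.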
Numbers without * were called inactive; ? = inconclusive; . = not tested or not shown; & = joins results of further samples; [ ] = dose if it differs, or a comment.

SMILES	gsp antagonist	TRPV1 PAM	ClpP mod	Menin-MLL FL inh	D2 PAM	Sfp inh	gsp ag
CCOC(=O)N1CCC(NC(=O)c2cc(S(=O)(=O)NCCc3ccccc3)ccc2F)CC1	-6%	-2	1.3%	2.1	1	3%	-1%[15.4 µM]
CCOC(=O)c1cnc2c(OC)cccc2c1N1CCN(c2ccccc2OC)CC1	-10%	-12	-3.2%	-1.6	-31	79µM*	7%
CCn1c(=O)c(C(=O)NCCCO)c(O)c2ccccc21	16%	-9	-20%	7.2	-21	12%	?
CCCN(Cc1nnc(-c2ccccc2Cl)o1)C(=O)c1cc2ccccc2o1	?	-12	.	.	0	.	1%[15.4 µM]
Cc1cc(Cl)c(S(=O)(=O)Nc2cccc(O)c2)cc1OCC(N)=O	16%	-3	-3.0%	-1.7	-8	12%	-3%
O=C(Nc1ccc([N+](=O)[O-])cc1Br)c1cc2ccccc2nc1Cl	8%	-2	.	0.5	0	-2%	-9%[15.4 µM]
COC(=O)CN(c1ccc2c(c1)OCO2)S(=O)(=O)c1c(C)[nH]c(=O)[nH]c1=O	12%	1	-2.5%	4.4	-8	9%	-6%
COc1cccc(-c2nn3c(-c4ccco4)nnc3s2)c1	3%	13	-11%	2.9	-10	-17%	7%
O=C(O)C1CCCN(S(=O)(=O)c2ccc(F)cc2)C1 (stereo not given)	3%	-9	-2.8%	5.2	6	11%	11%
CCS(=O)(=O)c1ccc(S(=O)(=O)CC)s1	11%	9	-28%	1.0	-3	12%	-49%[inhibitor]
COc1ccc(N2C(=O)CC(NCc3ccncc3)C2=O)cc1 (stereo not given)	-4%	?	-0.1%	-1.3	3	6%	-68%[inhibitor]
Cn1ncc(Br)c1C(=O)N/N=C/c1cccc(OC2CSC2)c1	-2%	?	-1.5%	8.3	-22	-2%	29%
CCOC(=O)c1c(NC(=O)C(C)Sc2cccc[n+]2[O-])sc2c1CCN(Cc1ccccc1)C2 (stereo not given)	-21%	10	-0.3%	18	-16	17%	-18%[15.4 µM]
COc1cc(CCCN2CCNC[C@@H]2Cc2ccc(O)cc2)cc(OC)c1OC	1%	2	-1.7%	.	-10	.	.
COc1ccccc1C(=O)NCCCNC(=O)c1cnccn1	1%	-1	.	-0.2	-4	20%	0%
Cc1ccc(C2C(=O)N(C3CCCC3)CC(=O)N2CC2COc3ccccc3O2)cc1 (stereo not given)	-4%	-13	0.9%	-0.9	-24	7%	3%
CCN(CC)c1nc(C(F)(F)F)nc2c1nnn2Cc1ccccc1	-10%	4	-0.8%	0.3	7	-13%	?
CC(=O)N1CCCc2cc(S(=O)(=O)N3CCCC(C(=O)Nc4ccccc4C)C3)ccc21 (stereo not given)	-9%	-4	1.2%	-3.2	3	8%	-1%
CN1CCN(S(=O)(=O)c2ccc(N)cc2)CC1	14%	-3	1.8%	1.9	5	12%	-62%[inhibitor]
Cc1cccc(OCc2nnc(SCC(=O)c3ccccc3)o2)c1	-11%	27	1.2%	-0.3	-6	-4%	9%
COc1ccc(C)cc1NC(=O)CN1C(=O)COc2ccc(S(=O)(=O)N3CCC(C)CC3)cc21	-10%	-4	-1.0%&1.5%	1.5	-5	-7%	?
CCC(C)NC(=O)Cn1cc(S(=O)(=O)N2CCCC2)c(S(=O)(=O)N2CCCC2)c1 (stereo not given)	-12%	21	-0.5%	.	1	12%	?
O=C(CSc1cn(CC(=O)N2CCCCCC2)c2ccccc12)NCC1CCCO1 (stereo not given)	-5%	10	.	5.6	-3	4%	-1%[15.4 µM]
O=C(NCC1CCCN1S(=O)(=O)c1cccs1)C(=O)Nc1ccccc1Cl (stereo not given)	1%	?	-1.3%	.	-9	.	-20%

Compound profiles, as listed above. Order of values: gsp antagonist	TRPV1 PAM	ClpP mod	Menin-MLL FL inh	D2 PAM	Sfp inh	gsp ag
`CN1CCN(S(=O)(=O)c2ccc(N)cc2)CC1` as listed: 14%	-3	1.8%	1.9	5	12%	-62%[inhibitor]
`O=C(NCC1CCCN1S(=O)(=O)c1cccs1)C(=O)Nc1ccccc1Cl` (stereo not given) as listed: 1%	?	-1.3%	.	-9	.	-20%
`CCC(C)NC(=O)Cn1cc(S(=O)(=O)N2CCCC2)c(S(=O)(=O)N2CCCC2)c1` (stereo not given) as listed: -12%	21	-0.5%	.	1	12%	?
`COc1ccccc1C(=O)NCCCNC(=O)c1cnccn1` as listed: 1%	-1	.	-0.2	-4	20%	0%
`O=C(CSc1cn(CC(=O)N2CCCCCC2)c2ccccc12)NCC1CCCO1` (stereo not given) as listed: -5%	10	.	5.6	-3	4%	-1%[15.4 µM]

(list continues)
SMILES	gsp antagonist	TRPV1 PAM	ClpP mod	Menin-MLL FL inh	D2 PAM	Sfp inh	gsp ag
COc1ccc(Cc2nnc(SCC(=O)c3c(N)n(C4CC4)c(=O)[nH]c3=O)o2)cc1	0%	0	0.0%	.	-2	.	-21%
O=C(Nc1cccc([N+](=O)[O-])c1)N1CCCc2ccccc21	-3%	-2	-2.2%	0.5	-8	11%	?
COc1ccc2c(c1OC)C(=O)N1N=C(c3ccc(F)cc3)CC21 (stereo not given)	-9%	3	-0.5%	-1.6	-10	28%	-2%
NC(=O)c1cccc(-c2cccc(OC(=O)NC3CCCCC3)c2)c1	1%	7	-1.0%	-0.3&3.5	-11	20%&3%	0%[15.4 µM]
CCOC(=O)c1oc2cc(O)ccc2c(=O)c1-c1csc(C)n1	-9%	-1	-12%	-1.9	-14	6%	-37%[inhibitor]
O=[N+]([O-])c1cc(C(F)(F)F)cc([N+](=O)[O-])c1NCCCN1CCOCC1	9%	14	.	-1.1	18	15%	-17%[15.4 µM]
O=C(CSc1nnc(CNC(=O)c2ccccc2F)o1)Nc1ccc2c(c1)OCO2	12%	11	1.6%	-1.1	0	0%	2%
Cc1onc(-c2c(F)cccc2Cl)c1C(=O)N1CCOC12CCCCC2	-23%	-5	.	0.8	-9	22%	-2%[15.4 µM]
COc1cccc(OC)c1C(=O)N1CCN(Cc2c[nH]c3ccccc23)CC1	.	.	0.2%	.	-14	.	-1%
CCOc1ccc(CCN2C(=O)C(=O)N([C@@H](CC(C)C)CN3CCC[C@@H]3CN3C(=O)C(=O)NC[C@@H]3Cc3ccccc3)C[C@@H]2Cc2ccc(O)cc2)cc1	?	.	2.3%	.	-9	.	.
CCN(CC)C(c1ccc(C)cc1)c1nnnn1C1CCCCC1 (stereo not given)	-15%	-16	-0.7%	5.9	-2	3%	-18%
Cc1cc(C(=O)N/N=C2\CC(=O)CC(C)(C)C2)n[nH]1	3%	.	-0.1%	-1.1	-10	-27%	-27%
O=C(CCN1CCC(c2ccccc2)C1)c1cccs1 (stereo not given)	0%	25	-2.0%	-1.0	-16	-20%	-34%[inhibitor]
CN(C)S(=O)(=O)c1cccc(NC(=O)c2ccc(COc3ccccc3)cc2)c1	32µM*	15	.	4.6	-3	7%	0%
CCC(CC)NC(=O)c1oc2ccccc2c1COc1ccccc1	-12%	-22	-2.6%	-2.6	-11	18%	-14%
CCOc1cc(C(=O)Nc2ccc(S(=O)(=O)N3CCOCC3)cc2)cc(OCC)c1OCC	8%	-8	-1.1%	2.6	-22	5%	0%
Cc1ccc(Cl)cc1N(C)C(=O)Cn1ncc2c([nH]c3ccccc32)c1=O	-5%	3	-5.5%	.	-10	8%	14%
CCOC(=O)CNc1nc(Oc2ccc(=O)n(C)n2)nc(N(CC)CC)n1	4%	6	-1.8%&-14%	2.0	0	8%	26%
C[C@H](NC(=O)c1ccccc1)C(=O)N1CCC2(CC1)NCCc1[nH]cnc12	10%	5	-0.7%	.	-8	5%	38%
COc1ccc(NC(=S)NC(=O)c2csnn2)cc1	-10%	-9	.	-0.7	-2	-25%	-7%[15.4 µM]
O=C(COC(=O)c1cccc(S(=O)(=O)N2CCOCC2)c1)NCc1ccc2c(c1)OCO2	-4%	.	.	.	-2	.	25%
COc1ccc(NC(=O)N(Cc2ccc(C)cc2)Cc2cccnc2)c(OC)c1	-6%	-2	-0.1%	0.2	-7	19%	7%
CCCc1cc(Nc2c(C)n(C)n(-c3ccccc3)c2=O)n2c(nc3ccccc32)c1C#N	20%	5	-30%	11	25	-11%	7%
Cc1sc2nc(CC(N)=O)[nH]c(=O)c2c1-c1ccccc1	4%	-10	-2.3%	-1.3	-5	-10%	16%[15.4 µM]
c1ccc([C@H]2CN3C(=N2)Sc2ccccc23)cc1	-8%	18	-0.5%	.	-18	.	.
O=c1[nH]c(/C=C/c2ccc(Br)cc2)nc2c1cnn2-c1ccccc1	.	-4	.	5.3	.	17%	.

As a working copy, 2 of the compounds above.
SMILES	gsp antagonist	TRPV1 PAM	ClpP mod	Menin-MLL FL inh	D2 PAM	Sfp inh	gsp ag
CCOC(=O)N1CCC(NC(=O)c2cc(S(=O)(=O)NCCc3ccccc3)ccc2F)CC1	-6%	-2	1.3%	2.1	1	3%	-1%[15.4 µM]
CCOC(=O)c1cnc2c(OC)cccc2c1N1CCN(c2ccccc2OC)CC1	-10%	-12	-3.2%	-1.6	-31	79µM*	7%

Compound activity (PubChem)
